HCMV UL50-53 inh: cytomegalovirus nuclear egress complex inhibition; HTRF UL50-UL53 interaction, normalized percent inhibition; inhibition, % (no concentration beside the values); hit rate 0.15% among 190,000; AID 1918969;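 active means both replicates at 50% or more, plus weaker picks with an unusually low signal ratio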;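 further: stock transfer was 100 nL into about 20 µL; 0% = negative control wells and 100% = wells with untagged competitor protein; inactives centre near -12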
Sa growth 42C: blocks Staphylococcus aureus growth | S. aureus RN4220 growth, OD600, 20 h, 42 °C; active compounds read low | relative growth, % (concentration not given with the values) | hit rate 0.53% among 170,000 | AID 720641;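 active means growth at 42 °C up to 50% and 20 or more points under that at 30 °C, or under 10% at both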;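 further: 300 nL library stock went into each well; scaled to the means of positive and negative controls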
GIV Gai3 FP: blocks GIV peptide binding to rat Galpha-i3 | percent of control (FP), % (test concentration not listed) | Galpha-i3/FITC-GIV peptide fluorescence polarization, 90 min; active compounds read low; scaled: aluminum fluoride 0%, vehicle 100% | AID 1224905 | hit rate 0.42% among 210,000;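 active means replicate mean at 85% of control or lower, very high polarization wells dropped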;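 further: lower values mean more displacement of the GIV peptide from Galpha-i3; wells of about 15 µL received 100 nL stock; the first replicate is given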
Target sequence (P08753 whole entry, looked up): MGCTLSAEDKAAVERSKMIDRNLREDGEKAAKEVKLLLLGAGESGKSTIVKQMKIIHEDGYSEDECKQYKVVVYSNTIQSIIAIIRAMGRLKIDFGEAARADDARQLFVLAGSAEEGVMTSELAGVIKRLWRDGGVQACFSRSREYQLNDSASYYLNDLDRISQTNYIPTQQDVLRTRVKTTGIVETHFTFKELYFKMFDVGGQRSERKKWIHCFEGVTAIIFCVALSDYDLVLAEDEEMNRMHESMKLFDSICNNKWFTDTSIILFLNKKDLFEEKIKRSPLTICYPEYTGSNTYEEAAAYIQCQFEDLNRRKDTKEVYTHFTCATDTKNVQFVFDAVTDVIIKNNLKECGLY
Sa growth 42C second temp: also measured in Sa growth 42C; calls as there; relative growth, %; measured here: growth at 30 °C;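 optical density after 20 h as mean of two plates; 100% = untreated growth and lower means inhibition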
* = called active by the depositor; . = no result given; & = joins results of further samples. Compounds were not picked by outcome (roughly 0.79% active in at least one column).

SMILES	HCMV UL50-53 inh	Sa growth 42C	Sa growth 42C second temp	GIV Gai3 FP
COc1ccc(C(=O)Nc2ccccc2)cc1S(=O)(=O)N1CCN(c2ccccc2)CC1	-15	107	93	97
CN(C)c1nnnn1-c1cccc(C(F)(F)F)c1	-10	.	.	110
COc1ccc(-c2cnnn2-c2ccc(NC(=O)c3ccccc3OC)cc2)cc1	.	105	96	114
Cc1ccc(Cl)cc1NC(=O)C(=O)NCC(c1cccnc1)N1CCc2ccccc21 (stereo unspecified)	-8	101	90	104
CC(C)CCOc1ccc(Cn2c(=O)oc3ccccc32)cc1	10	97	90	100
O=C(Nc1ccccc1)C(Cc1ccccc1)N1C(=O)C2C3C=CC(C3)C2C1=O (stereo unspecified)	.	114	85	108
COc1ccc(C(=O)NC2Cc3ccccc3C2)cc1OC	-2	99	92	100
NC(=O)CSc1cc(N2CCCCC2)ncn1	-32	.	.	104
CSc1ncc2c(n1)-c1ccccc1N(Cc1ccccc1)S2(=O)=O	.	93	90	108
O=C1CCCCCC1C1(O)C(=O)Nc2ccc(Br)cc21 (stereo unspecified)	-10	.	.	105
OC1(C(F)(F)F)CC(/C=C/c2ccccc2)=NO1 (stereo unspecified)	.	92	76	100
CCOC(=O)c1c(-c2ccc(Br)cc2)csc1NC(=O)c1ccccc1F	-27	91	94	102
CN(C)CC1CCCCC1OC(=O)c1ccccc1Cl (stereo unspecified)	-26	119	80	.
Nc1cc2c(cc1C(O)(C(F)(F)F)C(F)(F)F)OCCO2	14	78	101	.
COc1cc(NC(=O)CN2CCN(S(=O)(=O)c3ccc(Br)cc3)CC2)cc(OC)c1	.	109	102	110
CCOC(=O)Cn1c(=O)c(=O)n(C)c2c1c(C)nn2-c1ccccc1	-15	109	88	107
COc1cccc(C(=O)Nc2c(C(=O)Nc3ccc(F)cc3)oc3ccccc23)c1OC	-38	94	86	103
COc1ccc(C2=C(O)C(=O)N(c3ccc(Cl)cc3)C2c2ccccc2)cc1 (stereo unspecified)	-39	.	.	106
CCn1c(=O)cc(OCC(=O)NCCCN2CC(C)CC(C)C2)c2ccccc21 (stereo unspecified)	-22	89	83	99
COC(=O)c1cc(=O)c2cc(C)ccc2o1	-39	83	91	.
CC1CCCCC1NC(=O)c1ccc[nH]c1=S (stereo unspecified)	-4	38	19	.
COC(=O)c1cc2ccsc2n1CC(=O)Nc1ccc(OC)c(Cl)c1	16	.	.	101
CCN(CC)S(=O)(=O)c1ccc(/C=C/C(=O)Nc2ccc(-n3cnnn3)cc2)cc1	6	105	90	.
Cc1cc(N2CCCC2)nc(SCC(=O)c2ccccc2)n1	-19	119	96	104
CCC(=O)Nc1c(C(=O)OC)sc2ccccc12	-63	111	87	96
Additional compounds:
SMILES	HCMV UL50-53 inh	Sa growth 42C	Sa growth 42C second temp	GIV Gai3 FP
O=C(NCCCn1c(-c2ccc(F)cc2)nc2cccnc21)Nc1ccc(Br)cc1F	-2	.	.	105
O=C(Nc1ccc2c(c1)OCCO2)N1Cc2cccn2-c2ccccc21	7	.	.	102
Cc1ccc(C2=[N+]([O-])C3(CCCCC/C3=N\NC(N)=S)N(O)C2(C)C)o1 (stereo unspecified)	-12	95	100	94
Cn1c(C(=O)N2CCc3ccccc32)cc2c(=O)oc3ccccc3c21	12	.	.	104
CCC(=O)Nc1ccccc1Sc1cc(C)nc2ncnn12	-36	.	.	103
CC(=O)c1ccc(N2CCN(C(=O)CCn3cnc4onc(-c5ccc(F)cc5)c4c3=O)CC2)cc1	.	112	97	109
C=CCn1c(SCC(=O)NCCN2CCOCC2)nc2sc3c(c2c1=O)CCC3	-12	.	.	101
COc1cccc(NC(=O)N2CCN(S(=O)(=O)c3ccc4c(c3)NC(=O)CO4)CC2)c1	-1	.	.	109
Cc1ccc(NC(=O)NCCOCCn2c(=O)oc3ccccc32)cc1F	-26	86	82	102
CSc1nc2ccccc2n2cccc12	-10	85	100	106
CCCn1c(=O)c2[nH]c(C3CCCC3)nc2n(CCC)c1=O	-5&-18	.	.	110
NC(=O)C(C(N)=O)C1CCS(=O)(=O)C1 (stereo unspecified)	-1	107	88	.
O=C(NC(=NCc1ccncc1)Nc1ccc2c(c1)OCCO2)c1ccc(CN2CCCCC2)cc1	20	.	.	102
CC1(C)Cc2c(sc3ncn4nc(-c5ccco5)nc4c23)C(C)(C)N1	-26	98	91	100
Cc1ccc(-c2nc3scc(CCNS(=O)(=O)c4ccc(Oc5ccccc5)cc4)n3n2)cc1	.	122	98	114
CC1(C)CC(=O)c2sc(NC(=O)CN3CCN(C(=O)c4ccco4)CC3)nc2C1	-11	96	96	102
CCS(=O)(=O)NCC(c1ccco1)N1CCN(c2ccc(OC)cc2)CC1 (stereo unspecified)	.	93	97	96
Cc1sc2nc(-c3ccccc3Cl)n(CC(=O)Nc3ccc(Oc4ccccc4)cc3)c(=O)c2c1C	-14	.	.	104
CCOc1ccc2c(=O)c(Oc3ccc(OC)cc3)coc2c1	.	99	88	107
O=C1c2cccnc2C(=O)N1Cc1ccc(S(=O)(=O)Nc2cccnc2)cc1	-40	96	83	101
CCOc1ccc(NC(=O)NC23CC4CC(CC(C4)C2)C3)cc1	.	103	84	107
CCOc1ccc(-c2cn3c(c2C)-c2cccn2CC3)cc1	-28	86	66	.
CCc1ccc(CNC(=O)c2cc(-c3ccc(Br)s3)nc3ccccc23)cc1	-17	114	90	108
Cc1ccccc1CSc1[nH]c(=O)ncc1C	-24	76	91	105
Cc1nc(-c2cc(S(=O)(=O)NCc3ccco3)c(C)s2)no1	-30	.	.	104
Going on with the list:
SMILES	HCMV UL50-53 inh	Sa growth 42C	Sa growth 42C second temp	GIV Gai3 FP
CC(=O)Nc1ccc(NC(=O)CCS(=O)(=O)c2ccc3c(c2)CC(=O)N3C)cc1	.	97	88	106
COC(=O)c1c(NC(=O)C2Cc3ccc(C)cc3C(=O)O2)sc(C)c1C (stereo unspecified)	-18	.	.	105
Cc1ccc(-c2cc3c(n2-c2ccccc2)CC(C)(C)CC3=O)cc1	.	110	92	104
CN(C)c1ccc(-n2nc3ccc4ccccc4c3n2)cc1	3	73	105	103
COc1ccc(C(=O)OCC(=O)c2cc3c4c(c2)CC(=O)N4CCC3)cc1S(=O)(=O)N(C)C	-5	89	76	.
Cn1nnc2c(N3CCN(c4ccc(F)cc4)CC3)ncnc21	.	101	91	93
CN/C=C1\C(=O)C(C)(C)Oc2ccc3ccc(=O)oc3c21	.	119	98	101
COCCN(CCOC)S(=O)(=O)c1ccc(C(=O)Nc2sc3c(c2C(N)=O)CCCC3)cc1	-12	92	101	105
COC(=O)c1c(NC(=O)Cc2coc3cc(C)ccc23)sc2c1CCC2	3&-4	89	95	110&100
CC1CCN(S(=O)(=O)c2ccc(C(=O)Nc3nc4c(s3)COc3ccccc3-4)cc2)CC1	-20	90	83	95
COc1ccc(-c2noc(N3CCC(C(=O)N4CCN(c5cccc(C)c5C)CC4)CC3)n2)cc1	.	84	89	97
CCCNc1nc(SCc2ccc(Cl)cc2)nnc1C	.	92	67	104
O=C(CN1C(=O)c2ccccc2C1=O)c1ccc(OC(F)F)cc1	-22	104	102	109
C=CCNc1nc(-c2ccccc2)cs1	22	112	73	95
O=C(O)CC1C(=O)NCCN1Cc1ccccn1 (stereo unspecified)	14	.	.	101
CCCN1C2=S=C(CSc3nc4ccccc4n3CCC)C(=O)N2c2ccccc21	-12	86	93	.
COc1ccc(-c2c(NC(=O)C(C)C)n(C)c3ccccc3c2=O)cc1	-6	96	82	108
O=C(CNc1ccccc1)c1ccc(Cl)cc1	-14	63	91	101
COc1ccc(OC)c(CNC(=O)Cn2ncc3c(=O)oc4ccc(C)cc4c32)c1	-24	94	88	97
COc1ccc(CNC(=O)Cn2ncc3c4ccccc4n(Cc4cccc(Cl)c4)c3c2=O)cc1	-30	104	86	191
O=C(Cc1c(F)cccc1Cl)Nc1ccc2nc3n(c(=O)c2c1)CCCCC3	.	120	87	103
O=C(Nc1cccc2nsnc12)c1cc(Cl)ccc1NS(=O)(=O)c1cccc2nsnc12	-8	.	.	98
O=C1c2ccccc2C(=O)N1CCCC(=O)N(Cc1nc(-c2ccccc2)no1)C1CCCCC1	.	100	90	99
Cc1nc2c(-c3ccccc3)c(C)nn2c(C)c1CCC(=O)NCCc1ccccc1	-37	90	94	105
CC(=O)Oc1cccc(OC(C)=O)c1OC(C)=O	-16	62	58	.

Arranged by heavy-atom count (lowest first): part of the list above
SMILES	HCMV UL50-53 inh	Sa growth 42C	Sa growth 42C second temp	GIV Gai3 FP
CN(C)c1ccc(-n2nc3ccc4ccccc4c3n2)cc1	3	73	105	103
CCOc1ccc(NC(=O)NC23CC4CC(CC(C4)C2)C3)cc1	.	103	84	107
CCOC(=O)c1c(-c2ccc(Br)cc2)csc1NC(=O)c1ccccc1F	-27	91	94	102

Remaining list, next part.
SMILES	HCMV UL50-53 inh	Sa growth 42C	Sa growth 42C second temp	GIV Gai3 FP
CCOC(=O)c1c(C2CC2)csc1NC(=O)CSc1nnc(C(CC)N(C)C)o1 (stereo unspecified)	4	93	90	.
CC(C)C(=O)N1CCC(c2nc(-c3ccc(F)cc3)no2)CC1	8	103	75	99
O=S1CCCCC1	6	112	106	104
COC(=O)C1=C(C)N=c2s/c(=C\c3ccc(OC(C)=O)cc3OC(C)=O)c(=O)n2C1c1cccs1 (stereo unspecified)	-18	.	.	115
Cc1ccc(-c2nc(CSCC(=O)NCCN3CCCC3)c(C)o2)cc1	-3	81	97	102
CCOc1nc(-c2ccccc2)ccc1-c1noc(-c2ccccc2F)n1	-4	104	100	98
O=S(=O)(Nc1ccc(N2CCCCC2)cc1)c1ccc(F)cc1	-4	93	92	101
CCOC(=O)C1=C(C)NC(=O)C1CC(=O)Nc1ccc(C(=O)OCC)cc1 (stereo unspecified)	-14	90	92	104
CN(C)C(=O)/C=C/c1ccc(Cl)cc1	-41	91	90	.
C=CCNC(=O)C1CC(c2ccc(OC)cc2)=NO1 (stereo unspecified)	-6	104	88	103
CCOC(=O)N1CCN(C(=O)CSc2nc3c(cnn3-c3ccc(C)cc3)c(=O)[nH]2)CC1	.	89	88	100
CC1CN(C(=O)CCC(=O)Nc2cc(F)ccc2F)c2ccccc2S1 (stereo unspecified)	.	87	79	105
O=C(O)C1CSC(c2ccncc2)=N1 (stereo unspecified)	1	70	87	104
COc1cccc(-c2cc(C(F)(F)F)n3ncc(C(=O)OC(C)C)c3n2)c1	-18	90	90	103
Cc1ccc(-n2ncc(C(=O)NCCCN3CCN(c4cccc(Cl)c4)CC3)c2-n2cccc2)cc1	.	121	90	96
Cc1ccc2oc(=O)c3cnn(CC(=O)N4CCCCC4C)c3c2c1 (stereo unspecified)	.	96	88	102
Cc1cc(F)ccc1NS(=O)(=O)c1cc2[nH]c(=O)c(=O)[nH]c2cc1C	-5	99	93	103
COc1ccc(NC(=O)CSc2ncccc2C(=O)Oc2ccccc2Cl)cc1OC	.	103	89	99
CC(=O)NC(C)c1nc(-c2ccc(Cl)cc2)no1 (stereo unspecified)	0	.	.	98
COc1ccc(-c2nnc3n2N=C(N)CS3)cc1OC	0	92	90	108
CC(C)(C)C(/C=C/c1ccc(Cl)cc1Cl)n1nnnc1C(C)(C)N1CCOCC1 (stereo unspecified)	.	78	102	97
O=C(O)CNC(=O)C1CC1	19	100	96	.
O=C(OCc1cc(=O)n2ccsc2n1)C1CCCCC1	-27	104	81	98
O=C(O)CCC(=O)Nc1cccc(C(=O)N2CCCCC2)c1	-12	112	95	97
CCc1nc2cccnc2n1-c1ccc(CC(=O)NC(C)CC)cc1 (stereo unspecified)	-33	103	102	115

A second format for 4 compounds above.
| canonical_smiles | HCMV UL50-53 inh | Sa growth 42C | Sa growth 42C second temp | GIV Gai3 FP |
| --- | --- | --- | --- | --- |
| COc1ccc(NC(=O)CSc2ncccc2C(=O)Oc2ccccc2Cl)cc1OC | . | 103 | 89 | 99 |
| CC(=O)NC(C)c1nc(-c2ccc(Cl)cc2)no1 (stereo unspecified) | 0 | . | . | 98 |
| COc1ccc(-c2nnc3n2N=C(N)CS3)cc1OC | 0 | 92 | 90 | 108 |
| CC(C)(C)C(/C=C/c1ccc(Cl)cc1Cl)n1nnnc1C(C)(C)N1CCOCC1 (stereo unspecified) | . | 78 | 102 | 97 |

One compound at a time, from the list above. Values in the order: HCMV UL50-53 inh, Sa growth 42C, Sa growth 42C second temp, GIV Gai3 FP
CC1CN(C(=O)CCC(=O)Nc2cc(F)ccc2F)c2ccccc2S1 (stereo unspecified) in the list: ., 87, 79, 105
O=C(O)CCC(=O)Nc1cccc(C(=O)N2CCCCC2)c1 in the list: -12, 112, 95, 97
O=C(OCc1cc(=O)n2ccsc2n1)C1CCCCC1 in the list: -27, 104, 81, 98
COc1ccc(-c2nnc3n2N=C(N)CS3)cc1OC in the list: 0, 92, 90, 108
CC(C)C(=O)N1CCC(c2nc(-c3ccc(F)cc3)no2)CC1 in the list: 8, 103, 75, 99

Carrying on.
SMILES	HCMV UL50-53 inh	Sa growth 42C	Sa growth 42C second temp	GIV Gai3 FP
Cc1ccc(NC(=O)c2nc(S(C)(=O)=O)ncc2N(Cc2ccco2)Cc2cccs2)c(C)c1	-10	95	97	97
NS(=O)(=O)c1nn2cc(-c3ccccc3)nc2s1	-7&-1	108	96	.
Cc1ccc(C2C3=C(CC(C)(C)CC3=O)Nc3onc(C)c32)cc1 (stereo unspecified)	-27	101	96	.
NC(=O)CN1CCN(Cc2ccc3c(c2)OCO3)CC1	-18	86	109	98
CC1CCCN(S(=O)(=O)c2ccc3[nH]c(=O)cc(C(=O)NCCc4ccc(Cl)cc4)c3c2)C1 (stereo unspecified)	.	100	93	105
O=COCC1OC(OC=O)C(Nc2ccccc2)C(OC=O)C1OC=O (stereo unspecified)	-3	85	84	.
